Mtb bLac sens: beta-lactam sensitization of Mtb H37Rv, H37Rv; inhibition, % at 25 µM; actives 0.27% (n = 330,000); M. tuberculosis H37Rv growth with meropenem, percent inhibition; hits of this screen are not shown here;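 active = about 74% or more and at least 40 points above the plate without the antibiotic, then above 30% in a dose series; inconclusive = first-round hits that could not be retested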;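 also: growth measured after seven days incubation then overnight dye step; 0% = bacteria only wells and 100% = bacteria with antibiotic; twin plates without the antibiotic show which effects depend on it; some results filed as inactive read as strong as hits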
YopH inh: YopH tyrosine phosphatase inhibitors, primary screen, biochemical, fluorescence Ex485/Em525; YopH tyrosine phosphatase [Yersinia enterocolitica]; inhibition, %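 (about 10 µM by stock and volumes)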; actives 0.16% (n = 140,000); AID 898, 2007;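 active = inhibition of 50% or more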;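 also: controls were vehicle for no effect and minimum signal wells for full effect; inactives centre near -20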
Mtb H37Rv: M. tuberculosis H37Rv growth inhibitors, H37Rv strain (AID 1626). M. tuberculosis H37Rv growth inhibition; higher % means a stronger effect. inhibition, % at 10 µM; hits with a dose series show IC50 in µM. actives 0.95% (n = 220,000);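 active = confirmed in a dose series; inconclusive = inhibition above 80% but not taken into the dose series; inactive = below 80% or under 30% at every dose of the series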;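 also: bacteria incubated seven days before Alamar blue readout; 0% = bacteria only wells and 100% = bacteria with antibiotic wells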
Arbovirus inh: antivirals against arbovirus infection, primary screen, cell-based, full library, 10K replicate subset; inhibition, % at 10 µM; arbovirus infection cell-based antiviral screen; AID 1251, 2008; actives 0.37% (n = 200,000);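 active = inhibition from about 30%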;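 also: bluetongue infection of BSR cells; cell survival read as ATP light after 72 h; 0% = infected wells without compound and 100% = uninfected wells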
RecA splice inh: Mtb RecA intein splicing inhibitors, primary screen, biochemical, fluorescence, HTS. cell-free RecA intein splicing. inhibition, %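 (about 9 µM by stock and volumes)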. actives 0.75% (n = 290,000). AID 2221, 2009; in the data active = inhibition above about 30%; inconclusive = no clear call, values can overlap the other calls;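 also: 0% = vehicle wells and 100% = reference inhibitor control wells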
Target sequence (P9WHJ3 whole entry, looked up, canonical isoform): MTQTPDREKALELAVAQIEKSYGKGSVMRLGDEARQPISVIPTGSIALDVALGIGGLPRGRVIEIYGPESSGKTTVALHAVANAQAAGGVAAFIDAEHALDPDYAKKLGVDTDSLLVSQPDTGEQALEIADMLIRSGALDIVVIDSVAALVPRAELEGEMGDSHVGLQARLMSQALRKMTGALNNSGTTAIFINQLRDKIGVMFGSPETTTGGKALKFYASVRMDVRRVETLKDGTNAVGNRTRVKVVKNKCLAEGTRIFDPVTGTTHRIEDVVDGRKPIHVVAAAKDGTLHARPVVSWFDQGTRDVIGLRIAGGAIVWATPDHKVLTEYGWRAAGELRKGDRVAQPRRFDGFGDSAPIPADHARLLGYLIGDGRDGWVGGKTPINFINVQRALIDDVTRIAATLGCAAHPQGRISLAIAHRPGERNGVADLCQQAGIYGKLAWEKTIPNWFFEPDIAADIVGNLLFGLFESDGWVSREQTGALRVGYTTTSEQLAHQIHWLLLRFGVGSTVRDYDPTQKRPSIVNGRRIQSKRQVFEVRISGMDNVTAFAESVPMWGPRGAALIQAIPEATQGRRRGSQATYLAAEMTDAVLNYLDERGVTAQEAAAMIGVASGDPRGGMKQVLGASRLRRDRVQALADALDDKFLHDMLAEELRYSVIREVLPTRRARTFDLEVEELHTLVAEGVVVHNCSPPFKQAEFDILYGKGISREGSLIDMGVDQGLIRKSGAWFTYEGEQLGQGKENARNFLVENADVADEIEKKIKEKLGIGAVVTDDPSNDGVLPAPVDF
Arbovirus inh repeat: also measured in Arbovirus inh; calls as there; inhibition, %; measured here: 10K subset replicate screen; many hits read low in the repeat;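 first of two repeat runs on a subset; 0% = infected and 100% = uninfected wells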
* marks the source's active call; other numbers are inactive results; ? = inconclusive; · = no result given; & = joins results of further samples.

SMILES	Mtb bLac sens	YopH inh	Mtb H37Rv	Arbovirus inh	RecA splice inh	others
CCOc1c2ccc(C(=O)N[C@H](C)C3CCCCC3)cc2nn1CCOC	-9	-21	7%	-4	-2.5
CCCCN(CCCNC(=O)C1CCN(S(=O)(=O)N2CCOCC2)CC1)Cc1ccccc1	·	-23	-7%	6	·
Cc1noc(C)c1C(=O)Nc1ccc(F)c(F)c1	1	-6	-11%	-1	-3.3
CC(C)N1CCN(Cc2ccccc2C(F)(F)F)CC1CCO (stereo not drawn)	-5	·	6%	-10	-0.7
CC(=O)N1C(=S)NC(=O)/C1=C1/C(=O)N(CC(=O)Nc2cccc(C)c2)c2ccccc21	8	-4	-8%	-12	-2.6
Cc1ccc(Cn2nnc3c(=O)[nH]c(C4CCCN(S(=O)(=O)c5ccccc5)C4)nc32)cc1 (stereo not drawn)	0	-8	4%	-8	·
COC(=O)c1nc(N)sc1-c1ccc(Cl)c(Cl)c1	3	·	·	·	0.2
CC(=O)Oc1ccc(C(=O)Nc2ccccc2C(=O)Nc2ccc(C(=O)O)cc2)cc1	7	·	·	·	3.1
Cc1ccc(CN2CCN(/N=C/c3cc([N+](=O)[O-])ccc3Cl)CC2)cc1	98	-39	15%	5	8.5
COc1ccc(S(=O)(=O)Nc2ccccc2C(=O)N2CCOCC2)cc1OC	-3	·	·	·	-1.1
O=C(Cn1cncn1)N/N=C/c1ccccc1O	8	·	3%	·	-7.3
O=C(OCC(=O)N1CCCCCC1)c1ccc([N+](=O)[O-])cc1Cl	75	·	20%	3	0.2
O=C1CCCC2=C1C(O)(C(F)(F)F)C(=O)N2Cc1ccccc1 (stereo not drawn)	0	-16	-7%	4	-0.5
Clc1ccccc1OCc1nn[nH]n1	1	·	-4%	·	1.6
CN(C(=O)c1cccc(C#N)c1)c1nnc(-c2cnccn2)s1	-4	-9	-6%	6	0.4
Cc1ccc(C)c(OCC(O)CN2CCC(CN3C(=O)c4cccc5cccc(c45)C3=O)CC2)c1 (stereo not drawn)	100	-20	?	-43	-1.2
CCN(CC)c1cc2nc(C)n(Cc3ccccc3)c(=O)c2cc1NC(=O)C1CC1	-6	-24	0%	-9	8.8
Cc1n[nH]c(C)c1S(=O)(=O)N1CCN(C2CCCCC2)CC1	16	-3	-1%	2	-0.6
Cc1ccc(-c2ccc(/C=C3\C(=O)ON=C3c3ccccc3)o2)c([N+](=O)[O-])c1	14	-11	2%	-38	9.0
O=C(CCc1nnc(CCCCc2ccccc2)o1)NCCC1CCCCO1 (stereo not drawn)	-4	·	4%	-3	1.6
CCOc1ccc(N(CC(=O)O)S(=O)(=O)c2ccc(F)cc2)cc1	0	-39	-6%	4	·
COc1ccc(CSc2nnnn2C)cc1F	18	-40	2%	-5	1.3	Arbovirus inh repeat=4
COCCCNS(=O)(=O)c1ccc(Oc2ncc(C(F)(F)F)cc2Cl)cc1	0	-35	0%	-2	3.1
CCOc1cc2c(cc1OCC)-n1cccc1C(c1ccc(OC(F)F)cc1)NC2 (stereo not drawn)	10	·	·	·	2.0
CCOCC(=O)Nc1ccc(F)c(F)c1	·	-30	-1%	6	-12
Cc1nc2ccc(S(=O)(=O)Nc3cccc(-c4nc5cccnc5s4)c3)cc2s1	-4	-12	2%	7	5.5
O=C(c1cccc(-c2ccccc2F)c1)N1CC[C@@H](N2CCC(O)CC2)[C@H](O)C1	?	·	·	·	2.4
COc1ccc(/C=N\NS(=O)(=O)c2ccc(C)cc2)cc1COc1ccccc1[N+](=O)[O-]	-6	-31	2%	-11	-1.7
CC(=O)c1ccc(NC(=O)/C(C#N)=C/c2ccncc2)cc1	-9	·	·	·	-1.2
Cc1ccc(C)c(N2C(=O)CN=C2Nc2ccccc2Cl)c1	-14	-27	-1%	2	3.3	Arbovirus inh repeat=4

4 compounds already listed, ordered by SMILES length, ascending.
SMILES	Mtb bLac sens	YopH inh	Mtb H37Rv	Arbovirus inh	RecA splice inh	others
CC(=O)c1ccc(NC(=O)/C(C#N)=C/c2ccncc2)cc1	-9	·	·	·	-1.2
CCOc1ccc(N(CC(=O)O)S(=O)(=O)c2ccc(F)cc2)cc1	0	-39	-6%	4	·
COCCCNS(=O)(=O)c1ccc(Oc2ncc(C(F)(F)F)cc2Cl)cc1	0	-35	0%	-2	3.1
Cc1ccc(Cn2nnc3c(=O)[nH]c(C4CCCN(S(=O)(=O)c5ccccc5)C4)nc32)cc1 (stereo not drawn)	0	-8	4%	-8	·

(more compounds)
SMILES	Mtb bLac sens	YopH inh	Mtb H37Rv	Arbovirus inh	RecA splice inh	others
COc1cc(C(=O)Nc2ccc(C)cc2C(NCC(=O)NN)c2ccccc2)cc(OC)c1OC (stereo not drawn)	-2	·	·	·	2.5
O=C(CCCC(=O)N(c1ccc2c(c1)OCCO2)C(C(=O)NC1CCCCC1)c1ccc(F)cc1)Nc1ccccn1 (stereo not drawn)	2	-35	-11%	-6	-1.6
Cc1occc1-c1nnc(SCC(=O)N2CCc3ccccc32)o1	99	29	3%	-1	5.6
COc1cccc2c(=O)cc(C)n(CC(=O)Nc3ccccc3C)c12	56	6	6%	12	-1.3
Cn1c(=O)[nH]c2c(nc(-c3ccc(Cl)cc3)n2C)c1=O	2	·	·	·	-0.9
Cc1ccc(-c2cc(-c3ccccc3)no2)cc1	2	·	·	·	-0.1
CCOc1ncccc1C(=O)NCc1ccc(C)cc1	2	-25	2%	-10	4.7
CCC(=O)Nc1c(C(=O)N2CCN(c3ccccn3)CC2)cnn1-c1ccc(C)cc1	-4	-24	-12%	5	-0.8
O=C(CSc1nc2ccccc2c(=O)n1-c1ccc(F)cc1)NCc1ccco1	-7	10	-1%	-2	-1.4
Cc1ccc(C)c(N2CCN(C(=O)c3ccc(Cl)c(NC4=NC5CS(=O)(=O)CC5S4)c3)CC2)c1 (stereo not drawn)	3	·	·	·	-1.3
COCCn1nnnc1SCC(=O)c1ccc(F)cc1	2	-8	5%	-1	1.9
Cc1ccccc1Cn1nc(C)c(NC(=O)c2nc3n(n2)C(C(F)F)CC(C)N3)c1C (stereo not drawn)	-4	-31	1%	-3	3.6
CC(C)c1c(Cl)c(O)c(-c2ccccc2)c(=O)n1-c1ccc(F)cc1	8	-19	5%	1	16
CC(CNS(=O)(=O)c1cc(Cl)ccc1Cl)CN(C)C (stereo not drawn)	-14	6	-6%	0	-1.1
O=C(CN(c1cccc([N+](=O)[O-])c1)S(=O)(=O)c1ccccc1)N(Cc1ccccc1)Cc1ccccc1	-3	1	3%	-5	-2.9
C=CCNc1c2c(nc3nnnn13)CCCC2	-4	·	4%	12	-0.9
COC(=O)Nc1nc2ccc(C(=O)c3ccc(F)cc3)cc2[nH]1	6	·	2%&-3%	-13	-2.7
Nc1ccnn1C1CCNCC1	1	0	-3%	6	7.7
Cn1c(SCC(=O)Nc2ccc(F)cc2)nnc1C1CC1	-1	·	·	·	-2.5
Cc1ccc(C(=O)Nc2ccc(-c3csc(C)n3)cc2)cc1	18	·	3%	-4	0.6
CCOc1ccc(NC(=O)CNC(=O)COc2ccccc2)cc1	-12	-23	-2%	1	1.1
Cc1ccc(NC(=O)N2CCCc3ccccc32)cc1	1	·	-2%	-9	0.2
Cc1ccc(N2CC(C(=O)NCCS(=O)(=O)N3CCN(c4ccc(F)cc4)CC3)CC2=O)cc1 (stereo not drawn)	0	·	·	·	0.1
Cc1ccc(OCCCn2cc(C#N)c3ccccc32)cc1	4	-20	7%	3	·
COCCCNC(=O)c1ccc(S(=O)(=O)c2ccc(C)cc2)c(NC(C)=O)c1	-4	·	·	·	2.1
COc1cccc(-n2c(=O)[nH]cc(C(=O)Nc3ccc(NC(C)=O)cc3)c2=O)c1	52	-42	-2%	-5	2.3	Arbovirus inh repeat=-1
O=C(Nc1cccc(Cl)c1Cl)Nn1cnnc1	-5	·	·	·	2.8
O=C(NN1C(=O)C2C3C=CC(O3)C2C1=O)c1cccc(O)c1 (stereo not drawn)	2	-1	1%	-4	-3.3
CN1CCN(c2ccc(NC(=O)c3ccc(Br)o3)cc2)CC1	-3	·	·	·	3.6
C=CCN(c1ccccc1)S(=O)(=O)c1cccc(C(=O)N(CC)CC(=O)Nc2c(F)cccc2F)c1	-6	·	·	·	0.6
CC(CN(C)Cc1ccccc1)OC(=O)c1ccc(F)cc1 (stereo not drawn)	-1	-46	2%	-4	1.6
CCOC(=O)CC(=O)CSc1nc2cc(C)ccc2cc1C	1	-9	3%	14	3.1
COc1ccc2ccccc2c1/C=N/NC(=O)c1sc(N)c(C#N)c1C	3	-5	6%	-1	4.5
N=c1c2c(ncn1CCCO)Oc1ccc3ccccc3c1C2c1ccccc1 (stereo not drawn)	-5	·	10%	·	3.1
CC1CC(C)CN(CCCNC(=O)c2cn(C)c3ccc(S(=O)(=O)N4CCCC4)cc3c2=O)C1 (stereo not drawn)	-3	·	0%	·	-1.3
CN(C)CCCN(C(=O)c1sc2ccccc2c1Cl)c1nc2ccc(F)cc2s1	-3	-23	-2%	2	0.6
CN=C(Nc1ccc2c(c1)OCO2)SC1CC(=O)N(c2ccccc2)C1=O (stereo not drawn)	4	-4	13%	-8	1.6
COc1ccccc1N(CC(=O)NCC(C)C)S(=O)(=O)c1cccs1	3	-26	-5%	4	-2.3
S=c1[nH]nc(COc2ccc(Cl)cc2Cl)n1-c1ccccc1	-3	·	·	·	5.9
CC(=O)NC1(c2ccccc2)CCN(c2cc(C)nc(-c3ccccc3)n2)CC1	0	·	-2%	-4	3.2

6 records picked at random from the list so far, as already listed:
SMILES	Mtb bLac sens	YopH inh	Mtb H37Rv	Arbovirus inh	RecA splice inh	others
COc1ccc2ccccc2c1/C=N/NC(=O)c1sc(N)c(C#N)c1C	3	-5	6%	-1	4.5
N=c1c2c(ncn1CCCO)Oc1ccc3ccccc3c1C2c1ccccc1 (stereo not drawn)	-5	·	10%	·	3.1
CN=C(Nc1ccc2c(c1)OCO2)SC1CC(=O)N(c2ccccc2)C1=O (stereo not drawn)	4	-4	13%	-8	1.6
CCOC(=O)CC(=O)CSc1nc2cc(C)ccc2cc1C	1	-9	3%	14	3.1
COc1ccccc1N(CC(=O)NCC(C)C)S(=O)(=O)c1cccs1	3	-26	-5%	4	-2.3
CC1CC(C)CN(CCCNC(=O)c2cn(C)c3ccc(S(=O)(=O)N4CCCC4)cc3c2=O)C1 (stereo not drawn)	-3	·	0%	·	-1.3

Later entries:
SMILES	Mtb bLac sens	YopH inh	Mtb H37Rv	Arbovirus inh	RecA splice inh	others
O=C(N/N=C/c1ccc(Br)o1)c1ccc2c(c1)OCCO2	16	-4	0%	-3	-1.0
CCNC(=S)NNC(=O)c1csc(CC)c1	0	-26	-8%	0	2.7
CCOC(=O)C(NCc1ccc(OC)cc1)(NC(C)=O)C(F)(F)F (stereo not drawn)	-5	-28	3%	4	1.5
COc1ccc(S(=O)(=O)N2CCCC(C(=O)Nc3cccnc3)C2)cc1Cl (stereo not drawn)	-10	29	-11%	5	1.6
O=C(NCCCN1CCN(Cc2ccccc2)CC1)C1CCN(S(=O)(=O)N2CCC3(CC2)OCCO3)CC1	-2	·	-13%	6	0.2
CCOC(=O)c1nsnc1NCCCl	5	·	-3%	-4	-0.2
COc1ccc(C(=O)/C=C/N(C)C)cc1OC	7	4	-10%	-10	-5.9
Cn1c(=O)c2c(nc3n2CCS3)n(C)c1=O	0	·	1%	7	-4.1
CC(C)c1ccc(C2C3CSCC=C3C(C#N)=C(N)C2(C#N)C#N)cc1 (stereo not drawn)	6	-3	2%	-6	36*
O=C(CCc1nnc2ccc(NCc3ccccc3Cl)nn12)N1CCC2(CC1)OCCO2	-5	·	·	·	-0.4
CC1CCCN(C(=O)c2cc(S(=O)(=O)N3CCCCC3)c[nH]2)C1 (stereo not drawn)	3	·	·	·	0.7
CCOC(=O)C1=C(C)NC(=O)NC1c1ccc(OC)c(Cl)c1 (stereo not drawn)	-3	-16	1%	2	1.7
OCC1(Cc2ccc(F)cc2F)CCCN(Cc2ccc(Cl)cc2)C1 (stereo not drawn)	4	·	·	·	1.3
COC(=O)c1ccc2c(=O)[nH]c(CCl)nc2c1	64	·	2%	-7	14
COc1ccc(-c2ccc3c(N)c(C(=O)NC(C)C)sc3n2)cc1OC	8	·	4%	·	-46
CO/N=C(/CNC(=O)c1ccccc1Cl)c1ccc(Cl)cc1	61	-51	·	2	1.7
CCCCc1cc(=O)oc2cc(OCC(=O)NCCN3CCOCC3)ccc12	1	·	·	·	1.4
COCCn1c(C)cc(/C=C(\C#N)C(=O)OCC(=O)N(C)c2c(N)n(Cc3ccccc3)c(=O)[nH]c2=O)c1C	-1	·	·	·	-2.9
CCOC(=O)/C(=N/Nc1ccc(OC)cc1)Sc1nnc(CCc2ccccc2)n1-c1ccccc1	35	-29	8%	2	4.0

Assay outcomes: PubChem, several laboratories

This is a subset. The share of hits here may be higher or lower than overall.
